CSC inhib: blocks cancer stem cells; 300,000 tested, 1.1% active; AID 2717; cancer stem cell-like cells viability, luminescence; inhibition, % at 7.5 µM;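 active = mean at 75% or more and at least half the replicates too; inconclusive = mean and replicates disagree; tested in HMLE shEcad cells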;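 also: 0% = median of negative and 100% = median of positive control wells; the first replicate is given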
MT1-MMP act inh: blocks activation of human MT1-MMP | P50281 | HT1080 RFP-PRO-GFP cells, GFP/RFP ratio fluorescence, overnight; percent of plate control window, DMSO zero | GFP/RFP ratio change, % at 20 µM | 360,000 tested, 0.061% active | AID 651647;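 active = GFP/RFP ratio change of at least 30% with cell ATP level not reduced by more than half and red fluorescence within 50% of control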; also: strong numbers were not always called active
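Material: RFP-PRO-GFP reporter HT1080 cells. Dosing: single-point 20 µM compound, 1% DMSO. Controls: DMSO and RFP-L50D-GFP cell wells. Timing: cells overnight before dosing, compound overnight, 37 °C, 5% CO2. Measure: GFP/RFP fluorescence ratio.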
UUG fidelity: yeast start codon fidelity modulation; 350,000 tested, 0.13% active; S. cerevisiae UUG-firefly luciferase reporter, luminescence/redox ratio; AID 602363; activity score, % at 18.7 µM;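 active = replicate mean at a twofold rise or more, about +100% in these data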;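 also: firefly luciferase made from a UUG start codon reports start codon fidelity; reporter light over untreated wells divided by growth signal over untreated wells; some hits fall short of that in this replicate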
eIF4H inh: inhibitors of RNA binding by human eIF4H | Q15056 | eIF4H fluorescence polarization binding assay | inhibition, % at 35 µM | 290,000 tested, 0.94% active | AID 2012;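 active = 50% or more with normal probe brightness, or confirmed in later tests; inconclusive = above 50% with abnormal brightness, or retests that disagree; inactive = below 50% or failed in later tests; about a fifth of its hits are not listed in these tables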;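 also: calls also rest on retests at 20 µM and on dose response follow-up; 0% = protein and probe with vehicle and 100% = probe without protein; strong numbers were not always called active; many hits fall short of the cut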
Rce1 inhib: inhibitors of yeast Ras-converting enzyme | yeast membranes, quenched prenylated peptide cleavage fluorescence | calls only | 290,000 tested, 0.27% active | AID 2563;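 active = fall in fluorescence gain of 50% or more versus controls, with final raw signal at or below 3038400; inconclusive = same 50% fall but final raw signal above 3038400; inactive = fall in fluorescence gain under 50%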;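 also: plate controls were neutral control wells for no effect and wells lacking membranes for full effect; tested at 10 µM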
PABP FP inh: blocks human PABP binding to poly(A) RNA; fluorescence polarization; inhibition, % at 35 µM; 290,000 tested, 1% active;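 active = 50% or more with normal probe brightness, or confirmed in later tests; inconclusive = above 50% with abnormal brightness, or retests that disagree; inactive = below 50% or failed in later tests; about a fifth of its hits are not listed in these tables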;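 also: calls also rest on retests at 20 µM and on dose response follow-up; controls were probe without protein and protein plus probe with vehicle; some compounds called inactive have numbers as strong as hits; many hits fall short of the cut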
Target sequence (P11940 whole entry, looked up): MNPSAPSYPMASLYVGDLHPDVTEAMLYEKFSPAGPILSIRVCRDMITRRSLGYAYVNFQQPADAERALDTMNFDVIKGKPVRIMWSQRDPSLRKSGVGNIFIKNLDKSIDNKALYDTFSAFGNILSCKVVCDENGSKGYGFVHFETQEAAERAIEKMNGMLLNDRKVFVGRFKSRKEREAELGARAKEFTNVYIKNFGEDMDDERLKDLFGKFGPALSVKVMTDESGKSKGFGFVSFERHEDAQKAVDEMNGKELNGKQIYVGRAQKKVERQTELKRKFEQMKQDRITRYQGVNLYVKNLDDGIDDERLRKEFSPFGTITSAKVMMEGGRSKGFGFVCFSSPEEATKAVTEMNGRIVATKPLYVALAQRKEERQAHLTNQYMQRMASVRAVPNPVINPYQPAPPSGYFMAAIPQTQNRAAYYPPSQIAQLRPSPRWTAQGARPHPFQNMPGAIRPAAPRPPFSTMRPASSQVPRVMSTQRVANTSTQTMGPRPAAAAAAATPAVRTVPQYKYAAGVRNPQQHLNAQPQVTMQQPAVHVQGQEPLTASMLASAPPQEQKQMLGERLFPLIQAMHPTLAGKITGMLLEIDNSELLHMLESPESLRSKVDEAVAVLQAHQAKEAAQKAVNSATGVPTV
Env fusion inh: blocks HIV Env-driven cell-cell fusion; HeLa-JRFL Env/CEM21 cell fusion, luciferase; inhibition, % at 12.3 µM; 360,000 tested, 1.1% active; AID 651610;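 active = mean replicate inhibition score of at least 50 and every replicate individually at or above 50; inconclusive = only one of the two criteria met; inactive = mean below 50 and not all replicates reaching 50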;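 also: 0% = plate neutral controls and 100% = maraviroc near 300 nM; one replicate is shown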
MT1-MMP act inh RFP: second read-out of MT1-MMP act inh, no call of its own (marks repeat the call); RFP signal change, %; measured here: RFP expression control read;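 0 = vehicle wells; hits needed this value within 50% of zero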
Active calls of the source: *; i = inactive; ? = inconclusive; . = no result given; + = active, no number. Not all compounds are listed; count on the stated rates, not on these rows.

SMILES | CSC inhib | MT1-MMP act inh | MT1-MMP act inh RFP | UUG fidelity | eIF4H inh | Rce1 inhib | PABP FP inh | Env fusion inh
O=c1ccc(-c2ccc(S(=O)(=O)Nc3ccccc3Cl)o2)n[nH]1 | -11.2 | 0.5 | 3.7 | -18.6 | -7.3 | i | -0.5 | 6.7
Cc1csc(-c2cc(C(=O)NCc3cc(C(F)(F)F)cc(C(F)(F)F)c3)n[nH]2)c1 | . | 0.6 | -1.8 | -8.9 | . | . | . | -4.3
CCN(Cc1ccccc1)C(=O)CN1C(=O)COc2ccc(S(=O)(=O)N3CCCCCC3)cc21 | -6.0 | -3.6 | -5.4 | -3.0 | -15.3 | i | -5.7 | 12.8
Cn1nc(CC(=O)Nc2ccc3c(c2)CCC3)c2ccccc2c1=O | . | 9.9 | -12.8 | -9.7 | -7.8 | i | -1.1 | 78.8*
CC(OC(=O)c1ccc(S(=O)(=O)NCc2ccco2)cc1)C(=O)Nc1ccc(Cl)cn1 (centres undefined) | -7.9 | -1.5 | -0.2 | . | 14.7 | i | -4.0 | 13.5
CSc1nnc(NC(=O)C2CCCCC2)s1 | 3.2 | -3.0 | 3.3 | -17.3 | 0.7 | . | 5.4 | -29.8
CCc1c(C(=O)Nc2ccc(C)c(C)c2)[nH]c(C)c1C(C)=O | -1.0 | -0.2 | 0.3 | -12.2 | -8.8 | i | 0.5 | -19.7
CC(=O)c1nn(-c2ccc(Br)cc2)cc1C(=O)c1ccco1 | 6.2 | 2.3 | 1.8 | -15.8 | -3.7 | i | -1.4 | -65.6
O=C(N/N=C/c1cccs1)c1ccc2ccccc2c1 | 2.5 | -3.9 | -0.7 | -12.8 | 4.9 | i | 0.5 | 8.1
CC(C)C[C@H](NC(=O)c1[nH]cnc1C(=O)N[C@@H](C)c1ccccc1)C(=O)OC(C)(C)C | -13.4 | -16.2 | -13.7 | -11.5 | 27.2 | i | 7.0 | 14.1
CCCCCC(C)NC(=O)CN1C(=O)NC(C)(c2ccc3ccccc3c2)C1=O (centres undefined) | -9.6 | -1.8 | -9.0 | -5.1 | 4.8 | i | 6.2 | 7.7
COC(=O)[C@H](C)NC(=O)NCCC1=CCCCC1 | -4.0 | -4.8 | -1.4 | . | -14.0 | i | -6.4 | 8.7
CCCC(=O)Oc1cccc(C2NC(=O)c3ccccc3O2)c1 (centres undefined) | -12.8 | -6.7 | 2.5 | -14.3 | -0.9 | i | -4.3 | -12.3
Cc1ncoc1C(=O)N1CCCC(N2CCN(c3cccc(C(F)(F)F)c3)CC2)C1 (centres undefined) | 6.5 | -1.4 | -2.8 | -14.8 | -4.8 | i | 6.0 | -1.0
O=C(NCCCn1ccnc1)c1cc(C2CC2)on1 | -1.9 | 5.7 | 11.0 | -6.2 | -14.6 | i | 1.2 | -1.5
COc1ccc(NC(=O)O/N=C/c2ccc(N(C)C)cc2)cc1 | 19.4 | 3.4 | 5.4 | -14.3 | -15.3 | i | -8.4 | -19.5
O=C(OC(C(=O)NC1CCCC1)c1ccncc1)C1=Cc2ccccc2OC1 (centres undefined) | 4.1 | -4.6 | 0.7 | -4.9 | -10.2 | i | -0.1 | -71.3
O=C(O)c1cccc(NC(=S)NC(NC(=O)c2ccccc2[N+](=O)[O-])C(Cl)(Cl)Cl)c1 (centres undefined) | -5.1 | -0.5 | 3.6 | . | 11.7 | i | 3.2 | 1.7
Cc1cc(C)cc(OCC(=O)OCC(=O)Nc2ccc(Cl)cn2)c1 | -8.3 | 0.8 | 1.7 | 2.4 | 2.6 | i | -4.0 | .
CN(Cc1ccccc1)C(=O)c1cn(C)c2ccc(S(=O)(=O)N3CCCC3)cc2c1=O | 3.8 | -2.4 | 2.9 | -17.1 | -4.8 | i | -4.6 | 1.5
CCCOc1cccc(C(=O)N(Cc2ccccc2)C2CCS(=O)(=O)C2)c1 (centres undefined) | -10.4 | -0.8 | -3.4 | -8.2 | -1.9 | i | 2.8 | -6.6
CSc1ccc(CCNS(=O)(=O)c2ccc3c(c2)C(C)(C)C(=O)N3C)cc1 | -1.9 | 1.8 | 2.2 | -6.8 | -14.9 | i | -5.5 | 12.5
C[N+](C)(C)CCCC(=O)c1ccc2c(c1)OCO2 | -17.5 | -0.2 | 2.3 | 2.8 | -4.8 | i | 6.8 | .
CSc1nc(C)c(Cl)c(C)c1C#N | 5.8 | -2.7 | -5.5 | -13.4 | -6.7 | i | -8.1 | -12.6
COc1ccc(-c2n[nH]c(=S)n2Cc2ccccc2)cc1OC | -17.5 | 1.1 | 1.0 | -6.9 | 7.3 | i | 0.3 | -12.3
CCCCCCCC(=O)N/N=C/c1cccnc1 | -3.6 | -1.9 | -0.2 | -11.8 | 0.4 | i | 7.9 | .
COc1cccc(-n2c(SCC(=O)Nc3cc(C)on3)nc3ccccc3c2=O)c1 | -3.4 | 1.8 | -4.5 | 8.2 | 2.5 | i | 9.4 | 50.2
COc1cc(OC)c(NC(=O)CCNC(=O)Cn2ccc3ccccc3c2=O)cc1Cl | -10.0 | 5.0 | 4.9 | -13.6 | -0.5 | i | 7.4 | -40.6
CC(C)CCNC(=O)CCn1nc(-c2ccccc2)ccc1=O | -8.9 | 3.5 | 6.9 | . | -2.9 | i | -0.2 | .
CCOc1ccc(NC(=O)CN(C)C(=O)CCNC(=O)c2ccccc2Cl)cc1OCC | -3.7 | -2.2 | -0.2 | . | . | i | . | 0.8
COc1ccccc1N1CCN(Cc2nc3ccsc3c(=O)[nH]2)CC1 | -11.5 | -4.0 | 1.6 | -4.2 | 10.3 | i | 5.2 | .
COc1ccc(CC(=O)NCc2ccccc2F)cc1S(=O)(=O)N1CCOCC1 | . | -6.0 | 4.4 | -14.0 | . | . | . | -44.3
CCN(CC)S(=O)(=O)c1ccc(C)c(NC(=O)COc2ccc3c(C)cc(=O)oc3c2)c1 | -9.5 | -9.6 | 0.0 | -15.4 | -6.9 | i | -4.2 | 30.5
Cc1cc(Cl)ccc1NC(=O)COC(=O)c1nc2nccc(C)n2n1 | -10.2 | -3.1 | 4.2 | . | -3.9 | i | 4.8 | -5.5
CCn1c(C)c(C(C)=O)c(SC)nc1=S | -6.6 | -2.8 | -0.6 | -27.4 | 0.5 | i | 7.6 | .
C=CC[C@@H](CC(=O)N[C@@H](CO)Cc1ccccc1)C(=O)N[C@@H](COC(=O)[C@H](CC=C)CC(=O)OC(C)(C)C)Cc1c[nH]c2ccccc12 | . | -11.0 | -14.5 | 0.9 | . | . | . | -144.5
Cc1ccc(S(=O)(=O)NC(=O)N2CCCN(Cc3ccc(F)cc3)CC2)cc1 | -7.7 | -1.1 | 0.0 | -10.2 | -9.6 | i | 1.9 | -16.2
CCN(Cc1ccccc1)Cc1ccc(OCc2ccccc2)c(OC)c1 | 15.2 | -0.7 | -4.3 | -13.9 | -5.4 | i | 0.4 | 8.1
CC(NC(=O)NC12CC3CC(CC(C3)C1)C2)c1ccc2c(c1)OCO2 (centres undefined) | -10.4 | -2.9 | -1.0 | . | -4.3 | i | -2.9 | -11.0
COc1cc(C(F)(F)F)nc2c(Br)c(C(C)(C)C)nn12 | -9.4 | 3.1 | 2.2 | -24.7 | -3.5 | i | -7.9 | 7.0
O=C(NCC(c1cccnc1)N1CCOCC1)c1cccs1 (centres undefined) | -13.0 | 0.2 | 1.5 | -22.2 | 1.8 | i | 7.4 | -28.2
CN1C/C(=C/c2cccnc2)C(=O)/C(=C/c2cccnc2)C1 | 4.3 | -0.5 | -4.6 | . | 13.1 | . | 34.7 | i
Cc1c(Br)cccc1NC(=O)C1(C)CCN1C(C)C (centres undefined) | . | -7.7 | 2.2 | -6.2 | . | . | . | 8.4
O=C(CN1CCc2ccccc2C1)Nc1ccccc1Cl | 12.1 | -3.1 | -6.1 | -9.7 | 5.0 | i | -3.9 | 4.5
Cc1cccc(NS(=O)(=O)c2cc(C(=O)N3CCCC3)ccc2Cl)c1 | -24.4 | -0.6 | 3.1 | . | -4.7 | i | -1.5 | -6.8
CCOC(=O)c1c(-c2ccccc2)csc1N1C(=O)Nc2ccccc2N1O | -25.3 | -3.4 | -1.7 | . | 3.4 | . | -1.7 | 8.9
CCc1ccc(NC(=O)CSc2nc(=O)n(CCCN3CCOCC3)c3c2CCCC3)cc1 | 1.9 | 2.1 | -0.5 | -10.2 | . | i | . | -4.1
O=C(Nc1ccc2c(c1)OCO2)c1cc(C2CCCCN2C(=O)c2ccc3c(c2)CCO3)on1 (centres undefined) | . | -1.2 | -5.5 | -8.0 | . | . | . | 15.5
CC(C)(C)n1cnc2cc(NCc3ccc(Br)cc3)ccc21 | 3.5 | . | . | -11.9 | -9.7 | i | 2.5 | -48.0
CC(=O)N1CCOc2ccc(S(=O)(=O)Nc3cccc(C)c3)cc21 | 32.4 | -4.3 | -10.0 | . | -4.5 | i | 5.3 | -0.5

Additional results.
SMILES | CSC inhib | MT1-MMP act inh | MT1-MMP act inh RFP | UUG fidelity | eIF4H inh | Rce1 inhib | PABP FP inh | Env fusion inh
Cc1ccc(NC(=O)C2CCCN2C(=O)Oc2ccccc2)cc1 (centres undefined) | -8.0 | -1.3 | 5.1 | -20.6 | 3.6 | i | 4.3 | .
COc1cccc(NC(=O)C(C)C)c1 | -8.4 | 0.9 | 2.8 | -2.1 | . | i | . | 3.4
COc1cccc(N2CCN(c3ccc([N+](=O)[O-])cn3)CC2)c1 | 1.1 | 8.0 | -10.5 | -10.2 | -3.2 | i | -5.7 | 10.3
O=C(Nc1ccnn1C1CCN(C(=O)c2ccc(C(F)(F)F)cc2)CC1)C1CC1 | 8.7 | -2.1 | 4.5 | -17.1 | . | i | . | 1.1
CCOC(=O)C(C)N(c1ccccc1Cl)S(C)(=O)=O (centres undefined) | -5.3 | 6.4 | 5.6 | -21.5 | . | . | . | -5.1
COc1ccc(C(=O)/C=C/c2cc(OC)c(O)c(OC)c2)c(F)c1 | ? | -117.7 | 2.2 | . | 8.0 | i | -8.6 | 1.1
Cc1cc2nc3n(c2cc1C)CC1CC(C(=O)NCCc2cccs2)N(C)C31 (centres undefined) | 12.3 | 15.1 | 7.8 | -17.5 | 2.4 | i | 12.1 | -11.4
COc1cc(OC)c(NC(=O)Nc2ccc(OC)c(OC)c2)cc1Cl | -14.9 | -1.7 | -1.1 | -8.7 | -2.4 | i | 8.4 | -31.9
COc1ccc(-c2csc3ncnc(N4CCN(S(=O)(=O)c5ccc(Cl)s5)CC4)c23)cc1 | 11.1 | -8.5 | -7.8 | . | . | i | . | .
COc1ccc(C(C(=O)NC2CCCC2)N(C(=O)c2ccoc2C)c2cc(C)cc(C)c2)cc1 (centres undefined) | -5.0 | -27.0 | -17.5 | . | 5.6 | i | 6.2 | .
CC(C)CNC(=O)Nc1ccc(F)c(Cl)c1 | -2.0 | -2.8 | -9.1 | . | -6.7 | + | 3.6 | -3.1
CCCCN(C(=O)CSCc1ccc(C)cc1)c1c(N)n(CCC)c(=O)[nH]c1=O | -1.4 | -4.7 | -1.5 | 0.3 | 1.0 | i | -0.9 | -29.2
COc1ccc(NC(=O)CN2C(=O)NC3(CCCc4ccccc43)C2=O)c(OC)c1 (centres undefined) | -3.7 | 2.5 | 2.8 | -12.4 | . | . | . | -4.6

Random excerpt: two entries already listed
SMILES | CSC inhib | MT1-MMP act inh | MT1-MMP act inh RFP | UUG fidelity | eIF4H inh | Rce1 inhib | PABP FP inh | Env fusion inh
Cc1ccc(NC(=O)C2CCCN2C(=O)Oc2ccccc2)cc1 (centres undefined) | -8.0 | -1.3 | 5.1 | -20.6 | 3.6 | i | 4.3 | .
CC(C)CNC(=O)Nc1ccc(F)c(Cl)c1 | -2.0 | -2.8 | -9.1 | . | -6.7 | + | 3.6 | -3.1

From PubChem
